Assay outcomes as filed in PubChem.
CtBP-E1A inh: inhibitors of CtBP/E1A interaction; AlphaScreen GST-E1A/His-CtBP binding, 1536-well; hits give low values; control for the full effect not named in the record; activity change, % (concentration not given with the values); 340,000 tested, 0.49% active; AID 651724; in the data active means activity change below about -65%; inconclusive means about -30% to -65%; inactive means above about -30%; note: % is set by controls: 0 for no effect and ±100 for the full control effect
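GST-E1A and His-tagged CtBP (125 nM each as 5X stock) were preincubated with pin-transferred compound for 2 h at 37 °C in the dark, then glutathione donor and nickel acceptor beads were added for 1 h before AlphaScreen reading.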
PINK1 expr mod: changes PINK1 expression. Potency, µM (doses to about 76.6 µM), for inactives: at the highest dose activation (PINK1 increase), actives largely listed as activators. 410,000 tested, 0.2% active. AID 624263. PINK1 immunofluorescence, high-content cytometry, 24 h; active = well fitted activation curve with a large enough effect; inconclusive = small, poorly fitted or top-dose-only effect; inactive = flat fitted curve, though single readings scatter; cell line not stated here;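 note: potency is the fitted concentration of half-maximal effect; % of control where 0% means no effect; nearly all actives have a fitted effect of over 65% in size; a mitochondrial uncoupler was the plate control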
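Readout is PINK1 immunofluorescence, quantified alongside mitochondrial, cell and nuclear markers by laser-scanning microplate cytometry. Cells from a stable line were exposed to compound titrations (5 concentrations) for 24 hours, with CCCP controls.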
Sfp inh: blocks B. subtilis Sfp PPTase activity. Biochemical Sfp PPTase activity, qHTS. Potency, µM, for the others: max response, negative = inhibition, actives largely listed as inhibitors. 310,000 tested, 3.5% active; active = well fitted inhibition curve with a large enough effect; inconclusive = small, poorly fitted or top-dose-only effect, or another doubt; inactive = no such curve, though single readings can be large or run the other way;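 note: the enzyme is Sfp with the accession as filed and its product quenches rhodamine fluorescence; potency is the fitted concentration of half-maximal effect; 0% = enzyme reaction without inhibitor and -100% = no enzyme wells; top concentration of the series not given in the record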
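After 15 min at room temperature with compound, 15 nM Sfp received 5 uM rhodamine-CoA plus 12.5 uM BHQ-2-ybbR (50 mM Hepes pH 7.6, 10 mM MgCl2). Rate came from the fluorescence difference over 30 min, ex 525/em 598 nm.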
D2 ag: human D2 receptor agonism in beta-arrestin assay | AID 624465 | DiscoveRx PathHunter D2 beta-arrestin, luminescence, 90 min; 100% = 57 uM dopamine signal | activation, % (test concentration not listed) | P14416 | 360,000 tested, 0.084% active; in the data active = activation above about 40%; inconclusive = about 15% to 40%; inactive = below about 15%; note: compound concentration not given in the record; the text of the record calls up to 30% inactive
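Agonist mode: compounds alone added to overnight-plated D2 PathHunter cells for 90 min at 37 C, with 57 uM final dopamine (EC100) defining full response. Beta-arrestin recruitment detected by chemiluminescent reagent, read after 1 h at ambient temperature.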
TRPV1 PAM: potentiators of human vanilloid receptor 1 (TRPV1) | potentiation, % at 8.33 µM | TRPV1-expressing cells, Fluo-8 calcium influx, capsaicin EC20 potentiation; host cell line not named in the record; control for the full effect not named in the record | 320,000 tested, 0.02% active | Q8NER1; active means potentiation above 80%; inconclusive means 30% to 80%; inactive means below 30%; note: 0% is about no effect
Target sequence (Q8NER1 whole entry, looked up): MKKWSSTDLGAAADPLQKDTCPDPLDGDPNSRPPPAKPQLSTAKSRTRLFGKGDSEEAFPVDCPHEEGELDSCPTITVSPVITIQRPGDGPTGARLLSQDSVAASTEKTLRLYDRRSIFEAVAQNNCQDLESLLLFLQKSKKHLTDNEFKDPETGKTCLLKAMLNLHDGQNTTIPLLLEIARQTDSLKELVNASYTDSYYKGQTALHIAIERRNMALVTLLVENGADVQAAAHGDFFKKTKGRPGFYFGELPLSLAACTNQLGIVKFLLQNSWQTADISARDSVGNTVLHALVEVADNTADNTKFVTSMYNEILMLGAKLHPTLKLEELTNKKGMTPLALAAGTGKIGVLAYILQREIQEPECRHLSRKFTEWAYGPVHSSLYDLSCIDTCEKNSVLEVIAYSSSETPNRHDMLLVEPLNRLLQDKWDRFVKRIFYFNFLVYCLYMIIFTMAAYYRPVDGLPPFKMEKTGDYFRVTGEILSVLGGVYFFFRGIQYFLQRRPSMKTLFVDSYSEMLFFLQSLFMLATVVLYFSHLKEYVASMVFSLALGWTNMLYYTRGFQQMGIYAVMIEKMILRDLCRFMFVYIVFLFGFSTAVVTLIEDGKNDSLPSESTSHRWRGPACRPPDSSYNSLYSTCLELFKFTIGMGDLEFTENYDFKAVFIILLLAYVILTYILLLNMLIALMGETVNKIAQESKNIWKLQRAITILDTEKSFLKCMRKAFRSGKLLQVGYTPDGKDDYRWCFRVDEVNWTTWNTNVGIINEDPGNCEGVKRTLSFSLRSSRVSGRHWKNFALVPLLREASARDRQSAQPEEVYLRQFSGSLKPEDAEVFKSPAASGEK
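Cells expressing TRPV1 were dye-loaded with Fluo-8 and read kinetically: 10 s baseline, 3 min after compound (agonist portion), then 2 min after EC20 capsaicin (allosteric enhancer portion). Calcium-bound dye fluorescence at 480/520 nm.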
D2 potentiator: human D2 receptor positive allosteric modulation; DiscoveRx D2 beta-arrestin cells, luminescence, 90 min; 100% = 57 uM dopamine signal; potentiation, % (no concentration beside the values); AID 624464; 360,000 tested, 0.23% active; active = potentiation of 50% or more; inconclusive = 30% to 50%; inactive = 30% or less;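 note: compound concentration not given in the record; tested on top of an EC20 dose of dopamine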
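D2 cells co-treated with compound plus 50 nM dopamine (EC20) for 90 min at 37 deg C to detect potentiation. Beta-arrestin recruitment was read as enzyme-fragment luminescence after 1 h at ambient temperature. Full response was set by 57 uM dopamine.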
Six1-Eya2 inh: Six1/Eya2 interaction inhibition | AlphaScreen GST-Six1/His-Eya2 binding, biochemical; hits give low values; control for the full effect not named in the record | activity change, % (concentration not given with the values) | 360,000 tested, 0.56% active | AID 651725; in the data active = activity change below about -65%; inconclusive = about -30% to -65%; inactive = above about -30%; note: % is set by controls: 0 for no effect and ±100 for the full control effect
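Compounds are tested against tagged Six1 and Eya2 proteins bridged by glutathione donor and nickel acceptor beads; after a one-hour incubation at 37 °C without light, AlphaScreen emission is recorded.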
* = called active by the depositor; ? = inconclusive; . = not tested or not shown; & = joins results of further samples; [ ] = dose if it differs, or a comment.

SMILES	CtBP-E1A inh	PINK1 expr mod	Sfp inh	D2 ag	TRPV1 PAM	D2 potentiator	Six1-Eya2 inh
Cc1c(Cl)c(-c2n[nH]c(=S)n2-c2ccc(F)cc2)nn1C	-3.1	-1.4%	-10.1%	2.6	?	-7.9	7.2
CCOC(=O)c1[nH]c2ccccc2c1NC(=O)CCN1CCN(C(=O)OCC)CC1	-2.6	0.3%	8.0%	-0.4	-1.5	-24.2	3.5
CCN(CC)C1=N/C(=C\c2ccco2)C(=O)N1c1ccccc1	0.3	2.5%	?	0.3	-2.6	-17.6	3.0
CCOc1ccc(CCNC(=O)c2nnc(Cc3ccc(F)cc3)o2)cc1OCC	-0.2	3.7%	10.9%	-5.9	-19.7	-6.0	-5.2
c1ccc2c(Nc3ccc4c(c3)OCCO4)c3c(nc2c1)CCC3	.	39.8µM*	-18.3%	-1.6	-8.5	-17.8	-15.9
CC1CCCCC12NC(=O)N(CC(=O)Nc1sccc1C(N)=O)C2=O (stereo not given)	3.1	-0.3%	.	2.2	3.4	2.2	-4.5
COc1ccccc1C(=O)N1CCN(c2nc3cc(C)cc(C)c3cc2C#N)CC1	6.4	-0.3%	.	-0.7	.	.	4.6
Cc1ccc(CNC(=O)CCNC(=O)N2CCn3c2nc2ccccc23)cc1	.	1.5%	4.5%	-2.7	4.0	-4.6	4.9
Cc1ccccc1N1OC2C(=O)N(c3ccc(F)cc3)C(=O)C2C1c1ccccn1 (stereo not given)	15.4	6.8%[38.3 µM]	-4.6%	-0.4	-23.1	-13.0	-0.4
CCN(CC)CCCn1c2c(c(SCC(=O)Nc3nccs3)nc1=O)CCC2	2.3	2.1%	.	-2.2	?	-9.0	-4.7
O=C(COc1ccccc1Cl)NC(=S)N1CCc2ccccc21	11.0	.	11.3%	-0.3	20.7	-6.5	-0.5
CC1CC2=C(CC1/C=N/NC(N)=S)C(C)(C)CCC2 (stereo not given)	-12.6	0.5%	?	-6.3	1.5	-37.0	-3.2
O=C(c1ccc(Cl)cc1)[C@@H]1[C@@H]2C(=O)N(c3ccc(Cl)cc3)C(=O)[C@@H]2C2c3ccccc3C=NN21 (stereo not given in full)	-1.6	1.2%	27.6%	-0.1	-2.1	-0.1	-9.0
CC(=O)Oc1ccc(C(=O)Nc2cccc(C(=O)NC(C)(C)C)c2)cc1	26.1	1.8%	12.4%	-17.1	8.3	-15.1	-1.8
CC(C)=CCCC(C)CN1CCC(n2nccc2NC(=O)C2CCCC2)CC1 (stereo not given)	-4.7	0.4%	1.8%	-4.7	-18.1	-38.1	0.4
O=C(Nc1ccc(Cl)c(Cl)c1)N1CCSCC1	0.2	1.3%	-3.9%	-3.0	-1.1	-29.2	0.6
COc1ccccc1NC(=O)N(C)C[C@@H]1OCc2cnnn2CCCC(=O)N([C@@H](C)CO)C[C@H]1C	5.4	0.9%	.	-17.4	.	-0.8	-1.0
CCc1nnc(SCC(=O)NC2CCCCC2)nc1CC	11.1	1.0%	-4.1%	-0.3	-39.2	-1.9	11.1
COc1ccc(Oc2nc3c(c(=O)n(C)c(=O)n3C)n2C)cc1	2.7	-0.2%	6.9%	-2.1	1.5	-4.1	-0.2
O=C(N/N=C/c1ccc2ncccc2c1)c1ccco1	-19.1	-1.7%	-1.7%	-0.4	6.6	-4.3	-2.6
Cc1ccc(C(c2sc3nc(C)nn3c2O)N2CCN(c3ccccc3)CC2)cc1 (stereo not given)	?	-1.8%	14.5%	-3.0	12.6	-9.0	-17.7
C/C(CC(=O)Nc1cccc(Cl)c1C)=N\NC(=O)Cc1csc(N)n1	1.9	0.9%	6.1%	-1.2	-3.4	-4.2	-3.7
CCc1ccc(CN(C)C(=O)c2cc(COc3ccc(-n4cncn4)cc3)on2)cc1	3.1	-1.7%	4.5%	9.1	-7.7	-8.4	0.0
CC(C)(C)NC(=O)CSc1nnc(NC(=O)CCc2ccccc2)s1	-9.6	1.5%	10.5%	-3.9	-7.3	-2.9	13.5
C[C@@H]1CN([C@H](C)CO)C(=O)CCCn2cc(nn2)CO[C@H]1CN(C)C(=O)c1ccncc1	-7.3	2.8%	.	-5.2	.	-4.8	0.3
COc1ccc(CNC(=O)N2CCN(c3ccc(F)cc3)CC2)cc1	-4.3	-0.7%	29.2%	3.0	-10.4	-5.8	-17.3
CC(NC(=O)Cc1ccccc1)c1ccc(F)cc1 (stereo not given)	-0.8	3.7%	9.3%	-1.7	-12.2	-3.6	-13.6
CCOC(=O)C1CCN(CC(O)COCc2cccs2)CC1 (stereo not given)	-0.9	5.4%	19.0%	1.5	-0.6	-2.1	-1.6
COc1ccc(-c2nc(SC(C)C(=O)NC3CC3)n[nH]2)cc1 (stereo not given)	2.4	-0.7%	.	0.7	-1.1	?	1.2
CCc1cccc(CC)c1NC(=O)COC(=O)c1cccc(S(=O)(=O)N2CCc3ccccc3C2)c1	-3.2	-1.0%	2.8%	-3.6	1.9	-11.7	0.9
CC(=O)Nc1ccc2c(c1)c1ccccc1n2C(C)=O	-12.3	0.3%	25.9%	0.1	3.6	-2.4	-22.7
O=C(NCc1ccccn1)Nc1ccc2c(c1)OCO2	-1.8	-4.1%	79.4µM*	-0.1	-8.7	-11.3	4.6
COc1ccc(/C=N/NC(=O)Cn2cnc3ccccc3c2=O)cc1	-0.7	0.8%	1.5%	-4.0	-14.0	4.2	-2.8
CN(C)CCCNc1ccc(-c2n[nH]c(=O)c3ccccc23)cc1[N+](=O)[O-]	.	0.1%	0.8%	-6.2	-5.1	-27.1	-7.2
Cc1cc2c(cc1S(=O)(=O)CCC(=O)NCCc1ccccc1)OCC(=O)N2	-5.6	2.7%&3.0%	3.1%	-1.0	6.8	-4.0	-0.6
COc1ccc(CNS(=O)(=O)c2ccc(S(=O)(=O)N3CCCCC3)cc2)cc1	-1.0	.	19.2%	1.1	-3.2	9.4	1.6
N#Cc1ccsc1NC(=O)c1ccc2ncsc2c1	2.5	0.2%	.	-3.0	.	-5.1	-15.7
Cn1c(CSCc2ccc(F)cc2)n[nH]c1=S	.	-1.1%	-7.0%	-0.6	3.6	-19.8	0.2
Cc1cc2ccccn2c1C(=O)c1ccncc1	9.0	.	4.8%	1.4	10.9	7.2	-0.4
O=C1OC(Nc2cc(Br)cc3cccnc23)c2ccccc21 (stereo not given)	-2.5	4.6%	?	-1.0	10.3	7.6	0.5

Already shown: an excerpt of the list.
SMILES	CtBP-E1A inh	PINK1 expr mod	Sfp inh	D2 ag	TRPV1 PAM	D2 potentiator	Six1-Eya2 inh
N#Cc1ccsc1NC(=O)c1ccc2ncsc2c1	2.5	0.2%	.	-3.0	.	-5.1	-15.7
Cn1c(CSCc2ccc(F)cc2)n[nH]c1=S	.	-1.1%	-7.0%	-0.6	3.6	-19.8	0.2
Cc1cc2ccccn2c1C(=O)c1ccncc1	9.0	.	4.8%	1.4	10.9	7.2	-0.4
O=C1OC(Nc2cc(Br)cc3cccnc23)c2ccccc21 (stereo not given)	-2.5	4.6%	?	-1.0	10.3	7.6	0.5

Continued.
SMILES	CtBP-E1A inh	PINK1 expr mod	Sfp inh	D2 ag	TRPV1 PAM	D2 potentiator	Six1-Eya2 inh
Cc1cccc(NC(=O)CCCc2ccccc2)c1	.	0.4%	-1.8%	-1.8	-8.6	2.4	-3.4
Cc1ccc(Nc2nc(CSc3nnc(-c4ccncc4)n3C)cs2)cc1	5.2	1.0%	39.8µM*	0.0	-3.6	-17.8	4.1
O=C(Cn1nc(C(F)F)cc1C1CC1)N1CCCC1	2.5	-1.0%	12.4%	0.4	-4.5	-2.2	5.3
COc1ccc(NC(=O)c2cc(S(=O)(=O)N3CCS(=O)(=O)CC3)ccc2Cl)cc1	4.1	16.0%	16.8%	3.3	8.4	1.1	-5.5
COC(=O)c1ccc2nc(NC(=O)C(C)(C)C)sc2c1	-9.8	0.7%	1.5%	4.5	15.1	1.5	-6.7
COc1ccc2[nH]c(C(=O)Nc3cccc(C)n3)cc2c1	-1.5	2.8%	2.9%	-2.9	.	-3.3	-15.6
O=C(NNC(=O)c1cc2cc(OC(F)(F)F)ccc2[nH]1)c1cccc(C(F)(F)F)c1	3.8	15.6%	11.4%	-4.8	-7.2	3.1	2.1
O=C(CSc1ncnc2ccccc12)NC1CCS(=O)(=O)C1 (stereo not given)	8.5	0.1%	.	-2.3	.	-10.3	0.0
COC(=O)CN(c1nc(C)c(Br)c(OC)n1)S(=O)(=O)c1ccc(C)cc1	-4.8	0.1%	5.2%	-3.1	0.2	-8.6	-4.6
OC1CCCN(CC(O)COC(c2ccccc2)c2ccccc2)C1 (stereo not given)	-2.3	1.9%	4.9%	-1.3	8.1	-9.1	0.7
COc1cc(C)ccc1OCC(=O)NCC1CCCO1 (stereo not given)	-0.5	-1.5%	.	-1.0	.	-3.1	9.4
N#Cc1cccnc1N1CCC(C(N)=O)CC1	.	-0.4%	3.7%	-1.5	-6.3	-11.3	3.6
CN(C(=O)c1cccc(COc2ccc(Cl)cc2Cl)c1)c1ccccc1	18.0	26.2%	-12.2%	1.1	27.1	-15.9	12.9
CCOC(=O)N1CCN(C(=O)c2oc3ccc(S(=O)(=O)N(CC)CC)cc3c2C)CC1	4.9	0.0%	-1.7%	1.8	?	1.5	5.4
CCC(=O)c1ccc(/C=C/c2nc3ccccc3n2C)o1	.	0.7%	-10.4%	-1.6	22.7	-3.6	1.6
Cn1c(=O)c2c(nc(CN3CCN(C(=O)c4ccco4)CC3)n2CCc2ccccc2)n(C)c1=O	-1.5	-1.8%	13.3%	-3.8	0.9	-1.3	-5.1
COC(=O)c1ccccc1NC(=O)c1sc(=S)n(C)c1N	-8.0	0.9%	25.1µM*	-1.0	-1.4	0.1	-7.8
CN(C)CCN1CCN(C2CN(CCc3ccccc3)S(=O)(=O)C2)CC1 (stereo not given)	0.2	-0.4%	.	1.2	.	-0.1	1.6
O=C(O)c1cc(-c2ccccc2)n(-c2ccc(Cl)cc2)n1	.	-0.8%	29.5%	-2.9	13.9	-7.4	9.9
Cc1ccc(C(=O)OCc2nc(N)nc(Nc3ccccc3C)n2)cc1	1.0	0.8%	12.7%	-1.5	4.9	-27.9	-14.9
